Compound activity: PubChem BioAssay, National Center for Advancing Translational Sciences (NCATS)
Menin-MLL FL inh – menin-MLL binding inhibition, fluorescein peptide. AID 1766. 290,000 tested, under 10 active. FP activity change, % at 61.4 µM. Fluorescence polarization, fluorescein-MLL peptide displacement from menin; inconclusive = falling polarisation curve, or a change in total fluorescence; inactive = total fluorescence flat and polarisation flat or rising; no compound was filed as active; the % refers to the polarisation; negative = inhibition;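 note: % of control where 0% means no effect; inhibitors lower the polarisation; unlabelled MLL peptide was the positive control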
ClpP mod – qHTS Assay for Activators of ClpP; Potency, µM (top dose mostly 57.5 µM), inactives show at the highest dose activity change, negative = active; purified B. subtilis ClpP, FRET peptide cleavage, 20 min; AID 651965, 2013; ATP-dependent Clp protease proteolytic subunit (Bacillus subtilis (strain 168)), P80244; 340,000 tested, 1.9% active; active = well fitted falling curve with a large enough effect; inconclusive = small, poorly fitted or top-dose-only effect; inactive = no such curve, though single readings can be large or run the other way; note: potency is the fitted concentration of half-maximal effect; the source files actives as falling curves though it sought activators and does not explain the sign; nearly all actives have a fitted effect of over 65% in size; many hits overshoot -100%
Target sequence (P80244 whole entry, looked up): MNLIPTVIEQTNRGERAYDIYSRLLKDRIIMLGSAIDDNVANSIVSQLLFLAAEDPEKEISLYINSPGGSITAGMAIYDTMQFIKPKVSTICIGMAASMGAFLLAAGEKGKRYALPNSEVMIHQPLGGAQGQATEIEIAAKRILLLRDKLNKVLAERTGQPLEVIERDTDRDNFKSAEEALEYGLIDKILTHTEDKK
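ClpP 10 microg/mL final, pH 8 Tris/KCl buffer with BSA, glycerol, Tween-20; compound pinned in; FRET-FV substrate; RT 20 min; Ex320/Em430; ΔFRET vs ADEP 5.8 microM, DMSO, no enzyme.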
TRPML1 agonist – human mucolipin-1 channel agonism; TRPML1-expressing cells, Ca2+ dye fluorescence, FDSS; host cell line not named in the record; reference of the full effect not given here; 410,000 tested, 0.12% active; Q9GZU1; activation, % (no concentration beside the values); in the data active = activation above about 50%; inconclusive = about 30% to 50%; inactive = below about 30%; note: 0% is about no effect; the text of the record puts the active cut at 80%
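In this qHTS format, compounds were pin-transferred onto Ca8-dye-loaded TRPML1-DL cells induced with Tet overnight, and intracellular Ca2+ fluorescence was recorded kinetically for 110 s after a 10 s baseline. A subsequent 4uM final 54-4 (EC80) addition followed by a second 110 s read served as the antagonist phase.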
PINK1 modulator – changes PINK1 expression. 410,000 tested, 0.2% active. PINK1 immunofluorescence, high-content cytometry, 24 h. Potency, µM (series often up to 76.6 µM), for the others: at the top dose activation (PINK1 increase), usual class: activators; active = well fitted activation curve with a large enough effect; inconclusive = small, poorly fitted or top-dose-only effect; inactive = flat fitted curve, though single readings scatter; cell line not stated here;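 note: potency is the fitted concentration of half-maximal effect; % of control where 0% means no effect; nearly all actives have a fitted effect of over 65% in size; a mitochondrial uncoupler was the plate control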
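Decision-based qHTS: stable cells, 24 h exposure to five compound concentrations, CCCP as control. Fixed cells stained for PINK1 plus nuclear, mitochondrial and cell markers, cytometer read.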
TRPV1 PAM – potentiators of human vanilloid receptor 1 (TRPV1); Q8NER1; TRPV1-expressing cells, Fluo-8 calcium influx, capsaicin EC20 potentiation; host cell line not named in the record; control for the full effect not named in the record; potentiation, % at 8.33 µM; 320,000 tested, 0.02% active; AID 540277; active means potentiation above 80%; inconclusive means 30% to 80%; inactive means below 30%; note: 0% is about no effect
Target sequence (Q8NER1 whole entry, looked up): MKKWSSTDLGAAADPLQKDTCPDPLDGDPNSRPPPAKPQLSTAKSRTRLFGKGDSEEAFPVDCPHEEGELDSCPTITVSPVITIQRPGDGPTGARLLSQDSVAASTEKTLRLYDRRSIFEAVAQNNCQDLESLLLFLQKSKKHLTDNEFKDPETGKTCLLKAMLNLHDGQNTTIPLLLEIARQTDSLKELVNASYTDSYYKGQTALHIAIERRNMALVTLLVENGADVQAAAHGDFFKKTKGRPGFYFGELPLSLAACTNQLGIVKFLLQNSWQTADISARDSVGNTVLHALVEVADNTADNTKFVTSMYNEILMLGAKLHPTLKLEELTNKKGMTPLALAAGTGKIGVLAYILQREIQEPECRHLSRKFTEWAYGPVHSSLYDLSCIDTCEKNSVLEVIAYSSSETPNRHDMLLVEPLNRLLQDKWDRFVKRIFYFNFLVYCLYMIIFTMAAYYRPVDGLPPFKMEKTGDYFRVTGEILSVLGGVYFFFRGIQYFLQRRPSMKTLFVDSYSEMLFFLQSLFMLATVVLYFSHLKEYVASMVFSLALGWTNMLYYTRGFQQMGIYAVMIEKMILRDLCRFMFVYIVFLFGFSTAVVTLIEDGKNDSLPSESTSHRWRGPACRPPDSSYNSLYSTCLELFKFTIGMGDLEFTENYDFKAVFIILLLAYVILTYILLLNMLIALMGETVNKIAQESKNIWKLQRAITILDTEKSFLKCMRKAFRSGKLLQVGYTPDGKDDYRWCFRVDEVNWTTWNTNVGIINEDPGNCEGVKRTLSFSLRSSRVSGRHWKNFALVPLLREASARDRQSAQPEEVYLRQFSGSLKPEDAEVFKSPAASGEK
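Cells expressing TRPV1 were dye-loaded with Fluo-8 and read kinetically: 10 s baseline, 3 min after compound (agonist portion), then 2 min after EC20 capsaicin (allosteric enhancer portion). Calcium-bound dye fluorescence at 480/520 nm.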
Sfp PPTase inh – inhibitors of Bacillus subtilis Sfp phosphopantetheinyl transferase; Potency, µM, inactives show max response, negative = inhibition, usual class: inhibitors; Q9F4F7; 310,000 tested, 3.5% active; Biochemical Sfp PPTase activity, qHTS; active = well fitted inhibition curve with a large enough effect; inconclusive = small, poorly fitted or top-dose-only effect, or another doubt; inactive = no such curve, though single readings can be large or run the other way;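 note: the enzyme is Sfp with the accession as filed and its product quenches rhodamine fluorescence; potency is the fitted concentration of half-maximal effect; 0% = enzyme reaction without inhibitor and -100% = no enzyme wells; top concentration of the series not given in the record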
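Compounds were incubated with enzyme (final 15 nM) for 15 min at room temperature before substrate addition started the reaction. Fluorescence at 525 nm excitation, 598 nm emission was recorded immediately and after 30 minutes.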
TRPML1 inh – blocks the human TRPML1 channel. Q9GZU1. TRPML1-inducible cells, Ca2+ dye fluorescence, FDSS; active compounds read low; inhibition of EC80 agonist-evoked calcium signal. activity change, negative = inhibition, % (concentration not given with the values). 390,000 tested, 0.02% active; in the data active means activity change below about -50%; inconclusive means about -30% to -50%; inactive means above about -30%;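 note: stimulus is agonist 54-4 at its EC80 concentration; % is set by controls: 0 for no effect and ±100 for the full control effect; the text of the record puts the active cut at -80%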
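Tet-induced TRPML1-DL cells loaded with Ca8 no-wash calcium dye were read kinetically on FDSS. Compound addition was followed by EC80 agonist 54-4 (4 uM final); inhibition was read over 110 s.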
The depositor's hits bear a star; ? = inconclusive; · = not tested or not shown; & = joins results of further samples; [ ] = remark or other dose. This is a random part of the collection; overall some 4.4% were active at least once.

SMILES	Menin-MLL FL inh	ClpP mod	TRPML1 agonist	PINK1 modulator	TRPV1 PAM	Sfp PPTase inh	TRPML1 inh
Cc1ncsc1C(=O)Nc1nc2c(s1)CC(C)CC2 (configuration not stated)	-2.1	0.1%	0.3	6.1%[38.3 µM]	-15	-29%	-12
CN(CC(=O)Nc1cccc(F)c1)C(=O)c1cc(-c2ccccc2)nc2ccccc12	·	-2.5%	-0.6	10%	24	·	20
COC(=O)c1ccc(NC(=O)C(=O)NCCc2sc3nc(-c4ccc(OC)cc4)nn3c2C)cc1	·	?	1.7	3.0%	·	·	24
COCCNC(=O)c1cc2nc(-c3ccccc3)cc(C)n2n1	-1.3	·	-0.2	0.4%	1	13%	-9
COc1ccc(-c2cc(-c3ccc4c(c3)NC(=O)CO4)nc3c2COc2ccc(F)cc2-3)cc1	·	-3.2%	-0.2	1.7%	·	·	-2
O=C(NN1CCN(Cc2ccccc2)CC1)c1ccc(Cl)cc1	1.4	·	-0.2	-0.2%	-11	-12%	-8
COc1ccc(S(=O)(=O)N2CCN(C)CC2c2ccccc2)cc1 (configuration not stated)	·	-0.2%	-0.6	-0.1%	-2	·	4
COc1ccc(/C=N\NC(=O)c2ccc(Cn3cc(Br)c([N+](=O)[O-])n3)o2)c(OC)c1C	-6.1	-6.0%	2.2	2.9%	9	21%	13
CCOC(=O)Cc1nnc(Nc2cccc(C)c2)c2ccccc12	1.6	-0.2%	-0.1	-2.2%	-3	0%	-7
CCN(Cc1ccccc1)Cc1c(O)ccc2c(=O)c(-c3ccc(Cl)cc3)coc12	·	-29%	-0.2	0.6%	·	·	26
O=C(Nc1ccc(OC(F)(F)F)cc1)Nc1cccc([N+](=O)[O-])c1	3.4	0.7%	0.5	?	-4	?	-9
CC(=O)C1(C)C(=O)N(c2ccc(F)cc2)C(=O)N1c1ccc(F)cc1 (configuration not stated)	·	-1.3%	0.8	-4.9%	·	·	16

Quoted at random: 2 compounds from above.
SMILES	Menin-MLL FL inh	ClpP mod	TRPML1 agonist	PINK1 modulator	TRPV1 PAM	Sfp PPTase inh	TRPML1 inh
COC(=O)c1ccc(NC(=O)C(=O)NCCc2sc3nc(-c4ccc(OC)cc4)nn3c2C)cc1	·	?	1.7	3.0%	·	·	24
COc1ccc(-c2cc(-c3ccc4c(c3)NC(=O)CO4)nc3c2COc2ccc(F)cc2-3)cc1	·	-3.2%	-0.2	1.7%	·	·	-2

Additional entries.
SMILES	Menin-MLL FL inh	ClpP mod	TRPML1 agonist	PINK1 modulator	TRPV1 PAM	Sfp PPTase inh	TRPML1 inh
Cc1ccc(NC(=O)Cn2c(=O)n(Cc3ccco3)c(=O)c3ccccc32)cc1	·	3.4%	0.2	4.2%	·	·	-3
CN(CC(=O)Nc1ccc(N2CCOCC2)cc1)C(=O)CCCOc1ccc(Cl)cc1Cl	·	·	0.5	1.6%	-6	·	-11
CCOc1ccc2c(CC)cc(=O)oc2c1OCC	-1.7	-2.2%	-0.1	0.0%	-4	18%	-5
O=C(/C=C/c1ccc([N+](=O)[O-])cc1)c1ccccc(=O)c1O	·	1.5%	0.6	-5.7%	·	·	3
Cc1ccc(S(=O)(=O)N2CCC(C(=O)NNC(=O)c3ccncc3)CC2)cc1	4.2	·	-0.6	2.8%	-13	8%	-4
Cc1ccc(S(=O)(=O)NC(Cc2ccc(Cl)cc2)C(=O)O)cc1 (configuration not stated)	4.3	0.1%	0.9	1.9%	-4	11%	2
O=C(OCC(=O)N1CCc2ccccc21)c1cccnc1	-2.1	2.8%	0.7	0.0%	-2	-16%	8
COC(=O)CSC1=C(C#N)C(c2sccc2C)CC(=O)N1 (configuration not stated)	-1.0	1.8%	1.4	0.4%	-48	-1%	7
CC(=O)N1CCc2c(sc(NC(=O)Cc3ccccc3)c2C#N)C1	-3.7	0.3%	-0.6	8.0%	-8	10%	5
COc1ccccc1N=C1SCC(=O)N1c1ccccc1OC	2.8	1.2%	-0.5	-1.3%	6	4.5µM*	-16
COc1ccccc1N(CC(=O)Nc1c(C)n(C)n(-c2ccccc2)c1=O)S(=O)(=O)c1ccccc1	·	-0.2%	0.0	1.1%	·	·	-15
Cc1csc(NC(=O)C2CCN(C(=O)CSc3nnc(C)n3Cc3ccccc3)CC2)n1	1.4	-1.8%	-0.3	-1.7%[38.3 µM]	-6	0%	0
FC(F)(F)c1ccc(/C=N/n2c(C3CCCCC3)n[nH]c2=S)cc1	-0.4	0.1%	0.1	4.1%	0	-4%	-5
CN(C)c1ccc(CN(CC2CCCO2)C(=O)c2cccs2)cc1 (configuration not stated)	-14	0.3%	-0.5	-0.7%	4	10%	?
Cc1occc(=O)c1OCc1ccc(F)cc1	0.6	0.7%	0.7	-1.3%	0	22%	-18
O=C(Nc1cnc2ccccc2c1)C1COc2ccccc2O1 (configuration not stated)	-2.4	0.5%	-0.5	0.3%	-4	1%	-8
CN(CCOc1ccccc1)C(=O)c1ccc(OC2CCN(C(=O)C3CC3)CC2)cc1	-5.4	·	0.7	-0.4%	23	12%	2
CCn1c(SCC(=O)Nc2ccc3c(c2)OCCO3)nnc1-c1ccncc1	-0.9	·	-0.5	-1.7%	6	26%	-2
O=C1NC2=C(C(=O)CCC2)C(c2cccc([N+](=O)[O-])c2)N1 (configuration not stated)	-3.1	-6.4%	0.3	-0.7%	11	21%	35
CSc1cccc(NC(=O)CN(c2cccc(C)c2)S(C)(=O)=O)c1	5.8	-0.6%	-0.3	·	18	2%	-7
OC(c1cc(-c2ccc(Cl)cc2)nc2ccccc12)C1CCCCN1 (configuration not stated)	2.1	0.7%	2.1	14%	-5	?	42
COc1ccc(-n2c(=O)c3sc4ccccc4c3n(Cc3ccccc3)c2=O)cc1	·	?	-0.5	3.3%	·	·	11
O=c1c(/C=N/Nc2ccccc2)c(Sc2nnnn2-c2ccccc2)nc2ccccn12	?	0.0%	14	?	3	6%	19
COc1ccc(-c2nn(-c3ccccc3)cc2/C=N/Nc2ccccn2)cc1OC	1.3	?	0.4	0.6%	-15	-13%	33
CCOC(=O)C1=C(CC)Nc2ccccc2N/C1=N\S(=O)(=O)c1cc(Br)ccc1Br	-1.5	·	0.2	28%	23	11%	5
NC(=O)C1(N2CCCCC2)CCN(S(=O)(=O)c2cc(Cl)sc2Cl)CC1	5.5	·	-0.8	2.2%	19	24%	-7
O=C(c1ccc(C(F)(F)F)cc1)C1CCCN(C(=O)Cn2cncn2)C1 (configuration not stated)	0.5	1.7%	-0.3	4.7%	3	14%	3
COC(=O)[C@]1(C)N[C@H](CN(C)C(=O)Nc2ccc(Cl)cc2)[C@@H]2C(=O)N(Cc3ccccc3)C(=O)[C@@H]21	·	0.7%	0.6	3.4%	·	·	-9
c1csc(CNCCN2CCOCC2)c1	5.3	-1.8%	3.1	-4.4%[38.3 µM]	5	-8%	12
Brc1ccccc1/C=N/N1CCCCC1	-2.8	0.0%	-0.9	16%	4	6%	3
COC(=O)c1c(-c2ccc(F)cc2)csc1NC(=O)C1CCCO1 (configuration not stated)	9.6	·	2.2	0.6%	-13	-26%	7
Cc1c(CN2CCN(CC(C)(C)C)C(CCO)C2)[nH]c2ccccc12 (configuration not stated)	-5.4	-3.3%	-0.5	6.9%	2	2%	7
COc1ccc2cc1Oc1ccc(cc1)C[C@H]1c3c(cc4c(c3Oc3cc5c(cc3OC)CCN(C)[C@@H]5C2)OCO4)CCN1C	0.7&3.5	-0.5%	0.0	-0.6%	?	2%&-6%	4
COc1cccc(-c2nnc3sc(-c4ccccc4)nn23)c1	-0.1	24%	-0.3	0.5%	-10	-3%	5
CS(=O)(=O)Nc1cccc(NC(=O)c2ccc(-n3ccnc3)c3ccoc23)c1	·	-0.2%	-0.3	0.3%	·	·	·
COCCCNC(=O)COC(=O)c1ccc(-c2nc3ccccc3s2)s1	-2.1	4.0%	1.4	0.1%	0	10%	8
CCC(C)c1ccc(NC(=S)NCCn2cc(Cl)cn2)cc1 (configuration not stated)	-2.5	2.4%	-1.6	6.9%	-3	-20%	-11
O=[N+]([O-])c1ccc(O)c(CNCc2ccccc2)c1	·	0.7%	3.5	-1.5%	·	·	-20
CCN1CCN(c2ccc(S(=O)(=O)N3CCOCC3)cc2NC(=O)c2sccc2C)CC1	·	-5.8%	0.3	-0.8%	-8	·	-23
CC(C)Cn1c(SCC(=O)NC(=O)NC2CCCC2)nc2ccccc21	0.8	-0.2%	1.9	-1.8%[38.3 µM]	-15	2%	1
Cc1cc(C)nc(Nc2ccc(C(=O)O)cc2)n1	-4.4	-9.7%	1.0	·	3	11%	8
CC(C)C(CCNC1CCN(C)CC1)c1ccc(Cl)cc1 (configuration not stated)	0.7	-0.8%	·	-1.0%	-9	-8%	·
CCCN1CCN(C(=O)c2ccccc2-c2nc3ccccc3s2)CC1	8.7	·	0.0	-0.5%	-7	10%	1
O=C(O)COCC(=O)Nc1ccc(-n2nc(C(F)(F)F)cc2-c2cccs2)cc1	7.3	·	-0.5	2.3%	2	9%	14
C=CCNS(=O)(=O)c1ccc(N2C(=O)c3ccccc3C2=O)cc1	-0.5	-0.1%	0.5	-0.7%	1	16%	8
CCC(C)NC(=O)COC(=O)c1csc2c1CCCC2 (configuration not stated)	8.6	-3.6%	0.9	-0.4%	0	-3%	-13
Cc1ccc(S(=O)(=O)c2cccc(S(=O)(=O)N3CCOCC3)c2)cc1S(=O)(=O)N1CCOCC1	3.3	0.4%	0.5	0.0%	4	3%	6
O=C(COc1cccc(Br)c1)Nc1ccc(N2CCOCC2)cc1N1CCOCC1	·	0.9%	3.4	3.6%	-15	·	-11
O=C(CCCC(=O)N/N=C/c1ccccc1C(=O)O)N/N=C/c1ccccc1C(=O)O	0.8	0.3%	-0.6	0.0%	3	15%	-15
COc1ccc(/C(O)=C2\C(=O)C(=O)N(Cc3ccco3)C2c2ccc(OC)cc2OC)cc1 (configuration not stated)	4.3	-4.4%	-0.3	-3.8%	2	-6%	-18
COc1ccc(CCn2c(=O)c3cccnc3n(CC(=O)Nc3c(C)cccc3C)c2=O)cc1OC	·	-2.2%	1.8	2.0%	·	·	-23
